# Screening data as filed in PubChem.
# gsp ag – gsp mutant agonism; gsp mutant cells, cAMP HTRF, 30 min; control for the full effect not named in the record; Potency, µM (highest dose often 76.9 µM), for the others: at the top dose activation (cAMP increase), hits mostly activators; actives 0.13% (n = 340,000); AID 624287; active = well fitted activation curve with a large enough effect; inconclusive = small, poorly fitted or top-dose-only effect, or another doubt; inactive = no such curve, though single readings can be large or run the other way; cell line not stated here;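 note: phosphodiesterase inhibitor Ro 20-1724 added with compounds to block cAMP breakdown; potency is the fitted concentration of half-maximal effect; nearly all actives have a fitted effect of over 60% in size; about a fifth of the inactives were tested at one dose only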
#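 Cells stably selected in G418 were plated at 2000/well, grown 16-24 hr, then given compounds in DMSO with the PDE inhibitor […] (300 uM solution added) for 30 min at 37C; cAMP was read by HTRF.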
# Menin MLL FP FL – displaces fluorescein MLL peptide from human menin | Fluorescence polarization, fluorescein-MLL peptide displacement from menin | FP activity change, % at 61.4 µM | 290,000 tested, under 10 active; inconclusive = falling polarisation curve, or a change in total fluorescence; inactive = total fluorescence flat and polarisation flat or rising; no compound was filed as active; the % refers to the polarisation; negative = inhibition;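 note: % of control where 0% means no effect; inhibitors lower the polarisation; unlabelled MLL peptide was the positive control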
# Sfp PPTase inh – Sfp phosphopantetheinyl transferase inhibition. Q9F4F7. Biochemical Sfp PPTase activity, qHTS. Potency, µM, for inactives: max response, negative = inhibition, actives largely listed as inhibitors. actives 3.5% (n = 310,000). AID 1490; active = well fitted inhibition curve with a large enough effect; inconclusive = small, poorly fitted or top-dose-only effect, or another doubt; inactive = no such curve, though single readings can be large or run the other way;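 note: the enzyme is Sfp with the accession as filed and its product quenches rhodamine fluorescence; potency is the fitted concentration of half-maximal effect; 0% = enzyme reaction without inhibitor and -100% = no enzyme wells; top concentration of the series not given in the record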
#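 Reaction rates are the 30-min fluorescence difference (ex 525, em 598 nm) in wells containing 15 nM Sfp, 5 uM rhodamine-CoA and 12.5 uM BHQ-2-YbbR at pH 7.6 with 10 mM MgCl2.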
# ClpP mod – qHTS Assay for Activators of ClpP; AID 651965, 2013; Potency, µM (titrated, usually from 57.5 µM), for inactives: at the top dose activity change, negative = active; actives 1.9% (n = 340,000); purified B. subtilis ClpP, FRET peptide cleavage, 20 min; ATP-dependent Clp protease proteolytic subunit (Bacillus subtilis (strain 168)), P80244; active = well fitted falling curve with a large enough effect; inconclusive = small, poorly fitted or top-dose-only effect; inactive = no such curve, though single readings can be large or run the other way; note: potency is the fitted concentration of half-maximal effect; the source files actives as falling curves though it sought activators and does not explain the sign; nearly all actives have a fitted effect of over 65% in size; many hits overshoot -100%
# Target sequence (P80244 whole entry, looked up): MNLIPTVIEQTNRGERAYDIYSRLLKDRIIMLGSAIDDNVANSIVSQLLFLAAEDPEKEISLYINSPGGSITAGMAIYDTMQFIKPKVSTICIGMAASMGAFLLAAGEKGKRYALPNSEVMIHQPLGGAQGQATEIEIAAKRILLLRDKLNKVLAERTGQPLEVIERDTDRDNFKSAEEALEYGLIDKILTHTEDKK
#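 FRET quenching reversal measured ClpP activation: 10 microg/mL B. subtilis ClpP at pH 8 with the FRET-FV decapeptide, read at 430 nm after 320 nm excitation. The 20-min minus 0-min signal was scaled between DMSO/no-enzyme wells and ADEP (5.8 microM final).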
# gsp antagonist – antagonists of gsp mutant (McCune-Albright syndrome); gsp-mutant cells, cAMP HTRF, 30 min; control for the full effect not named in the record; Potency, µM (series often up to 76.9 µM), for the others: top-dose activity change, negative = inhibition, most hits filed as inhibitors; actives 0.4% (n = 340,000); AID 624288; active = falling curve of any shape with a large fitted effect; inconclusive = falling curve, mostly with a smaller effect; inactive = flat or rising curve; cell line not stated here;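 note: intracellular cAMP measured with PDE inhibitor Ro 20-1724 present during compound exposure; potency is the fitted concentration of half-maximal effect; % is set by controls: 0 for no effect and ±100 for the full control effect; nearly all actives have a fitted effect of over 65% in size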
#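 HTRF cAMP measurement after 30 min RT detection following 30 min, 37C compound treatment alongside […] (added as 300 uM solution) in G418-selected cells seeded at 2000/well and grown 16–24 h.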
# CtBP-E1A blk – CtBP/E1A binding inhibition | AlphaScreen GST-E1A/His-CtBP binding, 1536-well; active compounds read low; control for the full effect not named in the record | activity change, % (test concentration not listed) | actives 0.49% (n = 340,000) | AID 651724; in the data active means activity change below about -65%; inconclusive means about -30% to -65%; inactive means above about -30%; note: % is set by controls: 0 for no effect and ±100 for the full control effect
#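 AlphaScreen with 125 nM GST-E1A and 125 nM His-CtBP (5X stocks) in Tris pH 8.0, 300 mM NaCl, BSA, Tween 20, TCEP. Compounds preincubated 2 h at 37 deg C, then glutathione donor/nickel acceptor beads added for 1 h at 37 deg C in dark.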
# TRPV1 PAM – human TRPV1 potentiation; TRPV1-expressing cells, Fluo-8 calcium influx, capsaicin EC20 potentiation; host cell line not named in the record; control for the full effect not named in the record; Q8NER1; potentiation, % at 8.33 µM; actives 0.02% (n = 320,000); active means potentiation above 80%; inconclusive means 30% to 80%; inactive means below 30%; note: 0% is about no effect
# Target sequence (Q8NER1 whole entry, looked up): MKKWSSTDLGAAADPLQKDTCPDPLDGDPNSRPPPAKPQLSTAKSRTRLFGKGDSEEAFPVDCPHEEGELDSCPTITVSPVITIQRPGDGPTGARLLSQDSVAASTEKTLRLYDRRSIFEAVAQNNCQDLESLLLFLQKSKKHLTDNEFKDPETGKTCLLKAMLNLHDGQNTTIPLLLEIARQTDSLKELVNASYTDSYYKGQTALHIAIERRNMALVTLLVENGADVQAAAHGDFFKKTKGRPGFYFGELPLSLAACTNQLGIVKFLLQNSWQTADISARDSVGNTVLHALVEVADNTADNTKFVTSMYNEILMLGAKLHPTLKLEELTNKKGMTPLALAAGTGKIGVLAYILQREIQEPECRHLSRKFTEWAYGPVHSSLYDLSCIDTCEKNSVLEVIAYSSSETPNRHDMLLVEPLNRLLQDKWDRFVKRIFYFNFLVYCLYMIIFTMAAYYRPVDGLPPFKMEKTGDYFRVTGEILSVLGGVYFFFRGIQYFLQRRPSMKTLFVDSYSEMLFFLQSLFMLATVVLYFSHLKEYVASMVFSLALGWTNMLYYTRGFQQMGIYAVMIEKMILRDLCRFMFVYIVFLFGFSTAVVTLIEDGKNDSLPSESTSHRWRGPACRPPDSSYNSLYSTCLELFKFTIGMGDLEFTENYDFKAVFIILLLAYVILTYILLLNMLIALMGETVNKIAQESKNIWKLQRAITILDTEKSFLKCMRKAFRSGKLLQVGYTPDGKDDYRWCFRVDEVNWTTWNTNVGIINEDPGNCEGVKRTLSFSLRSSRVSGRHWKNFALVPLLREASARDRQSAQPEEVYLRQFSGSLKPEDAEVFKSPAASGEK
#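 Cells expressing TRPV1 were dye-loaded with Fluo-8 and read kinetically: 10 s baseline, 3 min after compound (agonist portion), then 2 min after EC20 capsaicin (allosteric enhancer portion). Calcium-bound dye fluorescence at 480/520 nm.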
# Starred values were filed as active, the others as inactive; ? = inconclusive; . = no result given; [ ] = remark or other dose. Rows are unselected (roughly 5.3% active in at least one column).
SMILES,gsp ag,Menin MLL FP FL,Sfp PPTase inh,ClpP mod,gsp antagonist,CtBP-E1A blk,TRPV1 PAM
O=C(CCc1ccccc1)Nc1ccc(N2CCCCC2)cc1,22%,1.8,13%,4.9%,7%,-13,-8
CS(=O)(=O)N1CCC(C(=O)N2CCC(Cc3ccccc3)CC2)CC1,-21%,3.7,7%,1.5%,3%,10,-7
Cc1cc(=O)oc(C)c1C(=O)NCCN(C)Cc1ccccc1,4%[15.4 µM],5.3,18%,.,13%,1,-33
Cc1ccc(-n2c(SCC(=O)N/N=C/c3ccccc3C(=O)O)nnc2-c2ccc(Cl)cc2)cc1,-8%[15.4 µM],-4.0,11%,.,-11%,4,21
CCOc1ccc2nc(SCC(=O)Nc3cccc(S(=O)(=O)NC4=NCCCCC4)c3)[nH]c2c1,-1%,0.7,-22%,.,-12%,-10,17
Cc1cc(C)c(C(=O)/C=C/C=C/c2ccccc2)c(=O)[nH]1,11%,.,2%,-1.6%,-12%,4,-6
O=[N+]([O-])c1ccc2c(c1)C(N1CCOCC1)/C(=C/COc1ccc(Cl)cc1Cl)O2 (stereo not given),3%,3.1,3%,-0.2%,-11%,-21,15
N#Cc1cc2c(=O)n3ccccc3nc2n(Cc2cccnc2)c1=O,22%[15.4 µM],.,.,.,-22%,1,.
CCOc1ccc(CC(=O)NCCc2cnc[nH]2)cc1,7%,1.1,2%,.,7%,-7,4
O=C(NC(=S)N1CCCC1)c1ccccc1F,13%,.,.,-1.4%,4%,23,30
CSc1cccc(NC(=O)C2C3C=CC4(O3)C2C(=O)N(CCN2CCOCC2)C4C(=O)NC2CCCCC2)c1 (stereo not given),?,4.7,13%,.,8%,8,11
COC(=O)Cn1cnc2c(nnn2-c2ccc(OC)cc2)c1=O,-42%[inhibitor],0.8,0%,-1.0%,-1%,17,-16
CSc1nc(N)n(-c2cc(C(F)(F)F)ccn2)n1,8%[15.4 µM],6.2,21%,.,5%,3,-11
Cc1cc(C)cc(-n2nnc(C(=O)NCc3ccco3)c2N)c1,5%,2.5,-16%,0.6%,17%,-2,-7
O=S(=O)(Nc1cccnc1)c1cc(Cl)ccc1Cl,6%,1.8,12%,0.6%,-13%,17,-38
Cc1nn(C)cc1S(=O)(=O)N1CCCCC1C (stereo not given),8%,.,13%,-0.1%,5%,-12,10
O=S(=O)(c1ccc(F)cc1)c1snnc1-c1ccccc1,-13%[15.4 µM],3.3,-2%,.,6%,6,-5
Cc1ccc(C(=O)Sc2cccccc2=O)cc1,26%,.,50µM*,.,-23%,-89*,12
c1ccc(SCc2cn3cccnc3n2)nc1,27%,1.1,15%,3.9%,11%,-4,16
O=[N+]([O-])c1ccc(S(=O)(=O)Nc2ncccn2)cc1,-47%[inhibitor],-19,5%,-2.8%,8%,-9,-16
CC(=O)N1c2ccc(S(=O)(=O)N(C)CC(=O)Nc3ccccc3C)cc2CC1C (stereo not given),26%,.,9%,-2.5%,5%,-5,7
COc1ccc(C(=O)CC(=O)C(=O)Nc2ccc([N+](=O)[O-])cc2C)cc1,-1%[15.4 µM],1.2,-5%,-3.4%,-2%,5,9
Clc1ccc(-c2c(C3=NCCCN3)nnn2-c2ccc(Cl)cc2)cc1,-1%,-4.5,13%,-0.7%,2%,.,-46
NC(=O)c1cc([N+](=O)[O-])ccc1NCCN1C(=O)c2ccc(C(=O)O)cc2C1=O,5%[15.4 µM],0.9,22%,.,9%,13,7
O=C(CCC(=O)c1cccs1)Nc1ncccc1O,?,.,.,?,6%,-4,9
C/C(=C\C(=O)c1sccc1Cl)N(C)C,2%,3.0,-17%,.,2%,-9,-14
COc1cccc(C(=O)N2CCC(n3nccc3NC(=O)C3CCOC3)CC2)c1 (stereo not given),6%,.,2%,-1.7%,7%,-1,-5
COc1nsnc1N1CCOCC1,-5%[15.4 µM],-0.4,6%,.,9%,0,-6
Cc1nn2cc(-c3cccc(Cl)c3)cnc2c1Br,-20%[15.4 µM],-1.1,24%,.,1%,-19,27
CN(CCCC(=O)O)S(=O)(=O)c1ccc2c(c1)C(=O)c1cc(S(=O)(=O)N(C)CCCC(=O)O)ccc1-2,5%,-0.3,10%,0.1%,3%,-4,0
COc1ccccc1N1CCN(Cc2nc(N)nc(Nc3ccc(C)cc3)n2)CC1,-14%,-1.7,5%,4.8%,1%,-2,7
CCCNC(=O)NC(=O)COc1ccc2oc3ccccc3c2c1,-2%,-1.3,20%,4.0%,-2%,-1,7
COc1ccc(C(=O)O)cc1Nc1cc(C)nc2ncnn12,?,0.8,8%,0.9%,10%,28,-1
CCOC(=O)c1sc(=S)n(C)c1N,18%,-0.2,-23%,-0.8%,6%,-1,-14
O=C(C1CC(=O)N(C2CCCCC2)C1)N1CCc2ccccc21 (stereo not given),-14%,-1.7,?,1.2%,?,.,2
COC(=O)C(C)NC(=O)CNS(=O)(=O)c1ccc(F)cc1 (stereo not given),?,1.9,18%,.,3%,-5,4
COc1ccc(/C=N/n2c(SC)nnc(C(C)(C)C)c2=O)c(OC)c1,-20%,-1.7,-10%,-0.8%,7%[15.4 µM],-2,1
Cc1cc(=O)oc(C)c1C(=O)N1CCN(C(c2ccccc2)c2ccccc2)CC1,-27%,0.3,10%,1.3%,-10%,0,-2
CN(C)CCN(C(=O)CCS(=O)(=O)c1ccccc1)c1nc2c(F)cccc2s1,38%,-2.1,2%,-1.5%,2%,-13,-2
CC1CCC2C(C1)c1sc(=O)[nH]c1SC2(C)C (stereo not given),-1%,1.4,8%,-0.2%,-11%,-10,12

# 2 compounds picked at random from those above, as already listed:
SMILES,gsp ag,Menin MLL FP FL,Sfp PPTase inh,ClpP mod,gsp antagonist,CtBP-E1A blk,TRPV1 PAM
COc1nsnc1N1CCOCC1,-5%[15.4 µM],-0.4,6%,.,9%,0,-6
C/C(=C\C(=O)c1sccc1Cl)N(C)C,2%,3.0,-17%,.,2%,-9,-14

# (listing goes on)
SMILES,gsp ag,Menin MLL FP FL,Sfp PPTase inh,ClpP mod,gsp antagonist,CtBP-E1A blk,TRPV1 PAM
O=C(CSc1nnc(NC(=O)c2c(F)cccc2F)s1)NC1CCCCC1,-7%[15.4 µM],2.2,18%,.,-14%,3,5
Fc1c(CSC(=S)N2CCOCC2)cccc1CSC(=S)N1CCOCC1,-11%,3.7,19%,.,1%,-16,-10
CCOc1cc(C(=O)N(C)CC(=O)Nc2cccc(F)c2)ccc1OCC(=O)N1CCOCC1,1%,.,.,0.2%,16%,-1,1
Cc1cc(S(=O)(=O)N2CCN(CC(=O)NCCc3cccs3)CC2)ccc1Br,24%,.,.,0.1%,-11%,0,3
CCN(CC)CCNC(=O)C(=O)Nc1ccc(C(=O)OC)cc1,-3%,-0.2,16%,0.7%,4%,.,-44
C#CCOCCOCCOCCNc1nc(N2CCN(C(=O)[C@H](CCC(=O)O)n3cc(C(N)CC(C)C)nn3)CC2)nc(N2CCN(C(=O)[C@H](CCC(=O)O)n3cc(C(N)CC(C)C)nn3)CC2)n1 (stereo not given in full),3%,-0.8,0%,-0.6%,-8%,.,-2
CC(C)NC(=O)CS(=O)(=O)c1ccccc1,-23%,-0.6,1%,-0.8%,13%,6,-3
COc1ccc(-c2sc(Nc3ccccc3)n[n+]2C)c(C)c1C,.,-3.6,1%,-3.9%,-2%,-13,6
Cc1cc(Nc2ccc(C(=O)O)cc2)n2nc(C)nc2n1,50%,4.4,15%,2.5%,17%,0,23
Cc1cc(C(=O)NCc2ccco2)c2cc(F)ccc2n1,-11%,0.8,-1%,-0.6%,1%,3,13
CCOC(=O)c1c(-c2cccs2)csc1NC(=O)COC(=O)c1c(C)noc1C,?,1.8,-10%,?,-10%,15,-9
COc1ccc([C@H]2CC(=O)C=C(c3ccc(F)nc3)C2)cc1OC,.,.,.,0.1%,-2%,2,3
Cc1c(C(=O)NCCC2=CCCCC2)sc2ncnc(N3CCCCC3C)c12 (stereo not given),7%,1.5,-13%,?,-18%,3,-15
O=C(NCCOC(=O)Nc1cccc2ccccc12)OCc1ccccc1,-31%[inhibitor],.,.,-8.5%,?,7,.
N#Cc1c(NC(=O)c2ccccc2Cl)n(Cc2ccccc2)c2nc3ccccc3nc12,-15%,23,-28%,-30%,-17%,4,1
CCCn1c(SCC(=O)Nc2cccc(C(=O)OC)c2)nnc1-c1cccnc1,-6%[15.4 µM],-1.6,7%,-12%,-9%,-3,?
CNc1nc(N/N=C/c2cc([N+](=O)[O-])ccc2F)nc(Nc2ccccc2)n1,3%,.,.,2.3%,?,.,.
O=S(=O)(Nc1ccc(-n2cnnn2)cc1)c1cccc(Cl)c1,21%[15.4 µM],.,.,.,-4%,8,-15
O=C(Cc1ccc(-n2cccc2)cc1)N1CCN(c2ccccc2F)CC1,-27%,4.2,0%,-0.1%,-26%,0,-11
CC(C)CC(=O)NNC(=S)NCc1ccco1,-5%[15.4 µM],-2.4,20%,.,.,-9,5
NC(=O)c1ccc(N=Nc2c(-c3ccccc3)[nH]n(-c3ccccc3)c2=O)cc1,.,2.0,-11%,.,.,.,-6
CN1C[C@@H]2[C@@H]3C(=O)N(Cc4ccccc4)C(=O)[C@@H]3[C@](Cc3ccccc3)(C1=O)N2C(=O)c1ccc(F)cc1,.,.,.,0.5%,7%,3,.
C=CCNCc1ccc(C(=O)NCCCCCCC)cc1[N+](=O)[O-],-7%,.,.,-9.3%,3%,.,2
CSc1nnc(C)c(/C=C/Nc2ccc(Cl)cc2)n1,-46%[inhibitor],?,14%,1.5%,-12%,?,10
CCCCN1C(=O)CC(SC2CC(=O)N(CCCC)C2=O)C1=O (stereo not given),3%,.,.,.,7%,-19,.
O=C(Cn1ccccc1=O)Nc1ccc(Cl)c(S(=O)(=O)N2CCCCC2)c1,-3%,.,.,-4.2%,-1%,.,-10
COc1ccc(C(CC(=O)O)NC(=O)COc2ccccc2)cc1OC (stereo not given),-17%,0.8,4%,-0.4%,9%,5,-41
O=C(CNS(=O)(=O)c1ccc(F)cc1)N1CCCCCC1,2%[15.4 µM],-0.7,?,.,-3%,-19,2
COc1ccc(-n2c(=O)cc(N3CCCCCC3)[nH]c2=O)cc1,1%,1.1,4%,0.8%,-3%,4,-12
